Compound activity deposited in PubChem by ICCB-Longwood Screening Facility, Harvard Medical School.
Polio RdRp inh: poliovirus RdRp elongation inhibitors, primary screen, biochemical, fluorescence polarization, total intensity | AID 588519, 2011 | poliovirus polymerase elongation; active compounds read low | % elongation, % (compound at 16.7 µg/mL) | 0.66% of 150,000 active; in the data active = % elongation below about 90%; note: some results filed as inactive read as strong as hits
Target sequence (P03300 1749-2209 limits assumed): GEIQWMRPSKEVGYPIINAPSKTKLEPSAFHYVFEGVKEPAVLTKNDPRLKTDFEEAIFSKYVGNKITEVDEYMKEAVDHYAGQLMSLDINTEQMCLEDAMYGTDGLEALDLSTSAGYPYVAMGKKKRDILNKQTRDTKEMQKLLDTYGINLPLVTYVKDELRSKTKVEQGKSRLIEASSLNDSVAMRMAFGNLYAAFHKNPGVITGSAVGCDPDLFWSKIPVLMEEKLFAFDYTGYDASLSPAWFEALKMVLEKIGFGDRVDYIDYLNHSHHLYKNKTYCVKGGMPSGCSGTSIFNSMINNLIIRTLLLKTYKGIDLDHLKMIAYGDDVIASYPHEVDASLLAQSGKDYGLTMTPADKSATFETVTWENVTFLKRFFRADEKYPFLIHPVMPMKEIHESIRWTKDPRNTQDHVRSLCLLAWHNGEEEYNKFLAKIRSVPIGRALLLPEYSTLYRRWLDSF
Polio RdRp inh intensity: recorded beside Polio RdRp inh, whose call it bears; % elongation; measured here: total intensity read-out; formula for this scale not given here;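 total fluorescence in place of polarization; lower means less elongation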
* hit, by the source's call. A portion of the library; count on the stated rates, not on these rows.

> COc1ccc(N2CC(NC(=O)C3CC3)CC2=O)cc1OC (stereo unspecified)
- Polio RdRp inh = 112
- Polio RdRp inh intensity = 111

> Cc1cc(C)cc(N2C(=O)CSC23C(=O)N(CC(N)=O)c2ccccc23)c1 (stereo unspecified)
- Polio RdRp inh = 106
- Polio RdRp inh intensity = 108

> O=C(CSc1nc(=O)n(CCN2CCOCC2)c2c1CCC2)Nc1ccc(Cl)c(Cl)c1
- Polio RdRp inh = 102
- Polio RdRp inh intensity = 106

> CC1CCCN(C(=O)CSc2c3c(nc4cc(Cl)ccc24)CCCC3)C1 (stereo unspecified)
- Polio RdRp inh = 99
- Polio RdRp inh intensity = 105

> COc1ccc(-c2nc(CSc3nncn4c3cc3sccc34)c(C)o2)cc1OC
- Polio RdRp inh = 107
- Polio RdRp inh intensity = 104

> COc1ccc(OC)c(NC(=O)CSc2nnc3ccc4ccccc4n23)c1
- Polio RdRp inh = 108
- Polio RdRp inh intensity = 109

> Cc1c(C(=O)OC2CCCCC2)[nH]c2c1C(=O)CC(c1ccccc1Cl)C2 (stereo unspecified)
- Polio RdRp inh = 106
- Polio RdRp inh intensity = 111

> COc1ccc(C)cc1NC(=O)C(Cc1ccccc1)NS(=O)(=O)c1ccc(Br)s1 (stereo unspecified)
- Polio RdRp inh = 103
- Polio RdRp inh intensity = 107

> Cc1ccc(Cn2ccnc2SCC(=O)NCc2ccccc2)cc1
- Polio RdRp inh = 110
- Polio RdRp inh intensity = 113

> CCOc1ccc(NC(=O)c2ccc3snnc3c2)cc1
- Polio RdRp inh = 108
- Polio RdRp inh intensity = 110

> COc1ccc(Cn2c(C(=O)O)c(CNCC(C)c3ccccc3)c3ccc(OC)cc32)cc1 (stereo unspecified)
- Polio RdRp inh = 110
- Polio RdRp inh intensity = 111

> Cc1ccc(C)c(CN2C(=O)c3ccccc3Sc3ccc(C(=O)NCCCOC(C)C)cc32)c1
- Polio RdRp inh = 105
- Polio RdRp inh intensity = 110

> CCc1ccccc1NC(=O)Cn1cc(S(=O)(=O)N2CCCC2)c(S(=O)(=O)N2CCCC2)c1
- Polio RdRp inh = 104
- Polio RdRp inh intensity = 111

> COc1ccc(C2=Nc3ccc(OC(F)(F)F)cc3NC(c3cccnc3)=N2)cc1
- Polio RdRp inh = 102
- Polio RdRp inh intensity = 106

> COc1cccc(NC(=O)c2csc3c2CCCCC3)c1
- Polio RdRp inh = 100
- Polio RdRp inh intensity = 104

> Cc1ccc(NC(=O)Cn2c(C)cc(C)c(C#N)c2=O)cc1F
- Polio RdRp inh = 114
- Polio RdRp inh intensity = 117

> Cc1ccc(NC(=O)c2ccc(CNS(=O)(=O)c3ccc4c(c3)C(C)(C)C(=O)N4C)cc2)cc1F
- Polio RdRp inh = 123
- Polio RdRp inh intensity = 119

> Cc1cc2nn(-c3ccc(F)cc3)nc2cc1NC(=O)c1ccc(OC(C)C)cc1
- Polio RdRp inh = 107
- Polio RdRp inh intensity = 112

> Cc1ccc(N2CCN(Cc3nnc(-c4ccc5c(c4)OCO5)o3)CC2)c(C)c1
- Polio RdRp inh = 110
- Polio RdRp inh intensity = 112

> COc1ccc(NC(=O)c2nnn(CC(=O)Nc3c(C)cc(C)cc3C)c2N)cc1OC
- Polio RdRp inh = 110
- Polio RdRp inh intensity = 105

> COc1ccc(-n2c(=O)c3ccc(C(=O)NCc4ccc(C)cc4)cc3n(CC(=O)Nc3cccc(F)c3)c2=O)cc1
- Polio RdRp inh = 106
- Polio RdRp inh intensity = 111

> COc1ccc(NC(=O)CN(c2ccc(C)cc2)S(=O)(=O)c2cccs2)cc1
- Polio RdRp inh = 105
- Polio RdRp inh intensity = 106

> COc1ccccc1NC(=O)c1sc2nc3c(c(C(F)(F)F)c2c1N)CN(C(C)=O)CC3
- Polio RdRp inh = 105
- Polio RdRp inh intensity = 112

> CCOc1ccccc1CNS(=O)(=O)c1cc2c(cc1C)NC(=O)CO2
- Polio RdRp inh = 110
- Polio RdRp inh intensity = 98

> CCOc1ccc(CNC(=O)c2cccc(NC(=O)N3CCSc4ncccc43)c2)cc1OC
- Polio RdRp inh = 108
- Polio RdRp inh intensity = 113

As entered above:
For Polio RdRp inh, `Cc1ccc(N2CCN(Cc3nnc(-c4ccc5c(c4)OCO5)o3)CC2)c(C)c1` has the entry 110
For Polio RdRp inh intensity, `CC1CCCN(C(=O)CSc2c3c(nc4cc(Cl)ccc24)CCCC3)C1` (stereo unspecified) has the entry 105
For Polio RdRp inh intensity, `COc1ccc(-n2c(=O)c3ccc(C(=O)NCc4ccc(C)cc4)cc3n(CC(=O)Nc3cccc(F)c3)c2=O)cc1` has the entry 111
For Polio RdRp inh intensity, `COc1ccc(NC(=O)c2nnn(CC(=O)Nc3c(C)cc(C)cc3C)c2N)cc1OC` has the entry 105

Structures from the list above containing fluorine, in the order listed:
> COc1ccc(C2=Nc3ccc(OC(F)(F)F)cc3NC(c3cccnc3)=N2)cc1
- Polio RdRp inh = 102
- Polio RdRp inh intensity = 106

> Cc1ccc(NC(=O)Cn2c(C)cc(C)c(C#N)c2=O)cc1F
- Polio RdRp inh = 114
- Polio RdRp inh intensity = 117

> Cc1ccc(NC(=O)c2ccc(CNS(=O)(=O)c3ccc4c(c3)C(C)(C)C(=O)N4C)cc2)cc1F
- Polio RdRp inh = 123
- Polio RdRp inh intensity = 119

> Cc1cc2nn(-c3ccc(F)cc3)nc2cc1NC(=O)c1ccc(OC(C)C)cc1
- Polio RdRp inh = 107
- Polio RdRp inh intensity = 112

> COc1ccc(-n2c(=O)c3ccc(C(=O)NCc4ccc(C)cc4)cc3n(CC(=O)Nc3cccc(F)c3)c2=O)cc1
- Polio RdRp inh = 106
- Polio RdRp inh intensity = 111

> COc1ccccc1NC(=O)c1sc2nc3c(c(C(F)(F)F)c2c1N)CN(C(C)=O)CC3
- Polio RdRp inh = 105
- Polio RdRp inh intensity = 112

A second format for some results above:
mol,Polio RdRp inh,Polio RdRp inh intensity
O=C(CSc1nc(=O)n(CCN2CCOCC2)c2c1CCC2)Nc1ccc(Cl)c(Cl)c1,102,106
CC1CCCN(C(=O)CSc2c3c(nc4cc(Cl)ccc24)CCCC3)C1 (stereo unspecified),99,105
COc1ccc(-c2nc(CSc3nncn4c3cc3sccc34)c(C)o2)cc1OC,107,104

Going on with the list.
> Cc1ccc(CNC(=O)Cn2cc(S(=O)(=O)Cc3cccc(Cl)c3)c3ccccc32)cc1
- Polio RdRp inh = 109
- Polio RdRp inh intensity = 115

> CCc1ccc(OCC(=O)N(Cc2ccc(C(C)C)cc2)C2CCS(=O)(=O)C2)cc1 (stereo unspecified)
- Polio RdRp inh = 104
- Polio RdRp inh intensity = 101

> CC(=O)Nc1nonc1-c1nnc(SCC(=O)Nc2cc(C)ccc2C)n1-c1ccccc1
- Polio RdRp inh = 122
- Polio RdRp inh intensity = 114

> COc1ccccc1NC(=O)Cn1nc(-c2ccc(C)cc2)c2c(c1=O)CCCC2
- Polio RdRp inh = 111
- Polio RdRp inh intensity = 109

> CCc1ccccc1NC(=O)Cn1c2ncccc2c(=O)n1-c1ccccc1
- Polio RdRp inh = 111
- Polio RdRp inh intensity = 108

> CCCCOc1ccc(C(=O)NCCS(=O)(=O)N2CCN(c3ccccc3OC)CC2)cc1
- Polio RdRp inh = 107
- Polio RdRp inh intensity = 107

> COCCNC(=O)CSc1nc2ccccc2nc1Cc1ccc(C)cc1
- Polio RdRp inh = 110
- Polio RdRp inh intensity = 104

> CCC(=O)N1c2ccccc2CC1C(=O)NCCCN1CCN(c2cc(C)ccc2C)CC1 (stereo unspecified)
- Polio RdRp inh = 112
- Polio RdRp inh intensity = 103

> O=C(Nc1c(O)c2ccccc2oc1=O)c1cccc(F)c1
- Polio RdRp inh = 108
- Polio RdRp inh intensity = 113

> CSc1ccc(CCNC(=O)CCc2c(C)nc3ncnn3c2C)cc1
- Polio RdRp inh = 106
- Polio RdRp inh intensity = 105

> CCOc1ccc(NC(=O)/C=C\C(=O)N(c2ccc(C(C)C)cc2)C(C(=O)NCc2ccco2)c2ccc(F)cc2)cc1 (stereo unspecified)
- Polio RdRp inh = 110
- Polio RdRp inh intensity = 98

> O=C(Cn1ncn2nc(-c3cccs3)cc2c1=O)NCc1cccc(Br)c1
- Polio RdRp inh = 111
- Polio RdRp inh intensity = 111

> Cc1ccn2c(NC(=O)c3cccc(Cl)c3)c(-c3ccccc3)nc2c1
- Polio RdRp inh = 104
- Polio RdRp inh intensity = 98

> CCc1cnc2c(c1SCC(=O)c1ccc(Cl)cc1)c(=O)n(C)c(=O)n2C
- Polio RdRp inh = 103
- Polio RdRp inh intensity = 107

> COc1ccc(-c2nc3scc(CCNC(=O)c4cccc(Br)c4)n3n2)cc1
- Polio RdRp inh = 108
- Polio RdRp inh intensity = 102

> CC(=O)Nc1nonc1-c1nnc(SCC(=O)Nc2cccc(C)c2C)n1-c1ccccc1
- Polio RdRp inh = 114
- Polio RdRp inh intensity = 110

> O=C(Nc1cccnc1)c1cc(-c2cccc(Cl)c2)on1
- Polio RdRp inh = 105
- Polio RdRp inh intensity = 99

> Cc1ccn2c(Nc3ccc4c(c3)OCCO4)c(-c3ccc(Cl)s3)nc2c1
- Polio RdRp inh = 110
- Polio RdRp inh intensity = 112

> CCc1cc(C(=O)Nc2sc(C)c(CC)c2C#N)no1
- Polio RdRp inh = 95
- Polio RdRp inh intensity = 99

> Cc1c2cnn(-c3ccccc3)c(=O)c2c(C)n1C(C)C(=O)Nc1ccc(Br)cc1F (stereo unspecified)
- Polio RdRp inh = 104
- Polio RdRp inh intensity = 107

> CCOc1ccc(NC(=O)N(C)CCc2c(C)nn(C)c2C)cc1
- Polio RdRp inh = 110
- Polio RdRp inh intensity = 109

> CCCCCOC(=O)CSc1nc2sc3c(c2c(=O)n1Cc1ccccc1)CC(C)(C)OC3
- Polio RdRp inh = 104
- Polio RdRp inh intensity = 103

> CC(Nc1ccc(-c2nc(-c3cccnc3)no2)cc1[N+](=O)[O-])c1ccccc1 (stereo unspecified)
- Polio RdRp inh = 105
- Polio RdRp inh intensity = 111

> CCN(c1cccc(C)c1)S(=O)(=O)c1ccc(-n2cccn2)cc1
- Polio RdRp inh = 106
- Polio RdRp inh intensity = 107

> COc1ccc(N2CCN(c3oc(/C=C/c4ccc(F)cc4)nc3C#N)CC2)cc1
- Polio RdRp inh = 109
- Polio RdRp inh intensity = 111

> CSc1ccc(CCNS(=O)(=O)c2cc(-c3cc(C)no3)ccc2C)cc1
- Polio RdRp inh = 113
- Polio RdRp inh intensity = 114

> CC(=O)Nc1ccc(S(=O)(=O)NC2(C(F)(F)F)NC(=O)N(c3ccc(C)cc3)C2=O)cc1 (stereo unspecified)
- Polio RdRp inh = 105
- Polio RdRp inh intensity = 106
